Screens: PubChem, National Center for Advancing Translational Sciences (NCATS)
nsP2pro primary = Primary qHTS for inhibitors of NSP2Pro chikungunya virus (CHIKV). Polyprotein P1234 (Chikungunya virus (strain S27-African prototype)), Q8JUX6. FRET peptide cleavage, nsP2pro, fluorescence 1 h. Potency, µM (top dose mostly 24.9 µM), inactives show at the highest dose activity change, negative = inhibition, most hits filed as inhibitors. 31,000 compounds, 1.1% hits. AID 1964107, 2024; active means well fitted inhibition curve with a large enough effect; inconclusive means small, poorly fitted or top-dose-only effect; inactive means no such curve, though single readings can be large or run the other way; note: nearly all actives have a fitted effect of over 60% in size; a reference inhibitor and vehicle were the controls
Target sequence (Q8JUX6 whole entry, looked up): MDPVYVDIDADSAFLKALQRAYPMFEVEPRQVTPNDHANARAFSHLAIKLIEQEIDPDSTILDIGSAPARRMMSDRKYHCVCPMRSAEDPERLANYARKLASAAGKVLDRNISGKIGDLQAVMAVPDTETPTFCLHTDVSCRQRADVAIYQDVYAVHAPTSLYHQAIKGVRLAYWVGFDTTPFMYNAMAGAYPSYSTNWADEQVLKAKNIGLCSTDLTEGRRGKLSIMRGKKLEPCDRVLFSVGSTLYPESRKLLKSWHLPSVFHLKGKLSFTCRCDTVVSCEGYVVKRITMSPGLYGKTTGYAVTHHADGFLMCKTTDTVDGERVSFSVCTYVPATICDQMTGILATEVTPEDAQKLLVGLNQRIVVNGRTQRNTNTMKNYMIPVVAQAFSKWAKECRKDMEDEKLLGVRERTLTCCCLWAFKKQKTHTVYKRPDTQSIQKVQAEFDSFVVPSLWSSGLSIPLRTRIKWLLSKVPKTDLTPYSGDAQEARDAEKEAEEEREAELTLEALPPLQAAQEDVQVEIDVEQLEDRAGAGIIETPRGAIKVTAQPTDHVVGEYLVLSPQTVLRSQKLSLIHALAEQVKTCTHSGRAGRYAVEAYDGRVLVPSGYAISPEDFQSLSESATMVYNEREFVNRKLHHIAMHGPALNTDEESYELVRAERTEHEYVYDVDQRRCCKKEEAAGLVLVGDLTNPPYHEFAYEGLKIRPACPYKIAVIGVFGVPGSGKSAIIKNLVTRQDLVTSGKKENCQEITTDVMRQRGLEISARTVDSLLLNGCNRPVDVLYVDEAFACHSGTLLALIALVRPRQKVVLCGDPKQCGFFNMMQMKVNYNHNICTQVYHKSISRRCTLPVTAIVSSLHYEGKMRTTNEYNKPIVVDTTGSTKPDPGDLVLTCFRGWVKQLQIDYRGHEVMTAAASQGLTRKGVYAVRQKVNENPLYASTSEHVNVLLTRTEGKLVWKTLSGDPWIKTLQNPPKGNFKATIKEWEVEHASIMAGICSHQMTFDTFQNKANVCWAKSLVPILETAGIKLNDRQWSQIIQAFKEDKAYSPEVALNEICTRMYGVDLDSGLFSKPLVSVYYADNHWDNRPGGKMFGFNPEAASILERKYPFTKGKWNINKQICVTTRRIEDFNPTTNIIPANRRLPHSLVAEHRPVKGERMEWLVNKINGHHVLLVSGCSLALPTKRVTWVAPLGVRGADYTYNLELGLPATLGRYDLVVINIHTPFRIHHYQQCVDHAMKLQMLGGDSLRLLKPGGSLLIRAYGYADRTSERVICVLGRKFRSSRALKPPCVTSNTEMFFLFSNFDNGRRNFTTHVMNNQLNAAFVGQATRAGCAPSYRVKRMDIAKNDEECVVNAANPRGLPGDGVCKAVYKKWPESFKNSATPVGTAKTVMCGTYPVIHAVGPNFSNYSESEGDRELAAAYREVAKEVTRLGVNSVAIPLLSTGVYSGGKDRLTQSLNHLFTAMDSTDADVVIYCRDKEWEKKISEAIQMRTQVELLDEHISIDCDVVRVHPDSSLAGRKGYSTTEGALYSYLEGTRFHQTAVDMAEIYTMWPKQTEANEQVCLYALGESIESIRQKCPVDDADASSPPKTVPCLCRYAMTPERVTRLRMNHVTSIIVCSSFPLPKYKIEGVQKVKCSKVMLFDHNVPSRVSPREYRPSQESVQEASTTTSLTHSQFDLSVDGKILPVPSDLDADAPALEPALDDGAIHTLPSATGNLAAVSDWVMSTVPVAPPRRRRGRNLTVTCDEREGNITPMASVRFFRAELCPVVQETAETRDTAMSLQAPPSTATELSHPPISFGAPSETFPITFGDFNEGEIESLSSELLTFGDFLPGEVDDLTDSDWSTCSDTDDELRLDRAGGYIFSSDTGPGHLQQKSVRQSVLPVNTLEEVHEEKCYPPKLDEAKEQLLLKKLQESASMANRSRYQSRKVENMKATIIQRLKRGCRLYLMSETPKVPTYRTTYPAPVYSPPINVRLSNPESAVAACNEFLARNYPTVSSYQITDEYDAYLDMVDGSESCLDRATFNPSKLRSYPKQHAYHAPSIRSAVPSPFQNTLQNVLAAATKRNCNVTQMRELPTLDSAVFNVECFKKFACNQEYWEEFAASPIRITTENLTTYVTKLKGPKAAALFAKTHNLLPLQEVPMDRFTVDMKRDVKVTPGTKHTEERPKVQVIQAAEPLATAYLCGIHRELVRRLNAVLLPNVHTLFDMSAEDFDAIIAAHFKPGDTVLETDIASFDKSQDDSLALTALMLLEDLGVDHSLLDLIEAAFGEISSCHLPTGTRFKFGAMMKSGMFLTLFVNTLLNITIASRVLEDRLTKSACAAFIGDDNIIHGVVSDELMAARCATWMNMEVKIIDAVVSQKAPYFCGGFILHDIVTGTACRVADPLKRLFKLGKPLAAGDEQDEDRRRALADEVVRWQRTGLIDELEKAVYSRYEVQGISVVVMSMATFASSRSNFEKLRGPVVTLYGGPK
* hit, by the source's call; i = inactive; ? = inconclusive; & = joins results of further samples; [ ] = another dose, or the depositor's remark. % is set by controls: 0 for no effect and ±100 for the full control effect; potency is the fitted concentration of half-maximal effect. These rows are one share of the data; count on the stated rates, not on these rows.

SMILES | nsP2pro primary
COc1ccc(C2CC(c3ccccc3)=NN2c2ccc(S(N)(=O)=O)cc2)cc1 (stereo not drawn) | 17%
Cc1ccc(OCCn2c(CCNC(=O)/C=C/c3ccccc3Br)nc3ccccc32)cc1 | i
CC(C(=O)O)C(=O)O | -12%
Cc1ccc2oc(=O)c(-c3nc(-c4cccs4)no3)cc2c1 | -9%
CCCC(=O)N1CCN(c2nc3ccc(F)cc3s2)CC1 | -31%
CCc1ccc(OCCCn2c(-c3ccc(Cl)cc3)nc3ccccc3c2=O)cc1 | -28%
COc1cc2nc(NCC(C)c3ccccc3)n3nc(-c4ccccc4)nc3c2cc1OC (stereo not drawn) | -4%
CCOc1ccc(C(=O)Nc2ccc3oc(-c4ccc(C)cc4C)nc3c2)cc1Br | -24%
CC1(C)C(=O)N2c3ccccc3C(O)(CC(C(=O)O)n3cnc4ccccc4c3=O)C2N1O (stereo not drawn) | ?
Fc1cccc(Br)c1NC1=NCCN1 | -3%
C[C@H]1C/C=C/[C@H]2[C@@H]3O[C@]3(C)[C@@H](C)[C@H]3[C@H](Cc4ccccc4)NC(=O)[C@]32OC(=O)O/C=C/[C@@](C)(O)C1=O | -9%[10 µM]
CC(=O)Nc1cc(-c2cc(C(=O)NCc3cccnc3)c3c(c2)N(C)CCO3)ccn1 | i
O=[S+]1([O-])NC2(CCCN(Cc3ccc(F)cc3)C2)CNc2ccccc21 (stereo not drawn) | i
O=C(Cn1c(=O)n(-c2ccccc2)c(=O)c2c3c(sc21)CCC3)c1ccc(Br)cc1 | -24%
CC(=O)c1ccc(N2CCN(c3ccc4cc(S(=O)(=O)N5CCC(C)CC5)ccc4n3)CC2)cc1 | -19%
O=C(Nc1ccc2ncnc(N3CCCCC3)c2c1)C1CCCCC1 | i
COc1ccccc1CN1COc2ccc3c(C)cc(=O)oc3c2C1 | 58%
Cc1ccc(C2=NC3(CCN(C(=O)COc4cccc(C)c4)CC3)ON2)cc1 | -3%
Fc1cccc(-c2nc3ccccc3s2)c1 | -2%
O=C(c1n[nH]c2ccccc12)N1CCCC1c1nc(CCOCC2CCOCC2)no1 (stereo not drawn) | i
Cc1cccc(CSc2nc3c(sc4ccccc43)c(=O)n2CCC(=O)NC(C)C)c1 | -27%
CC(C(=O)O)C1CCC2(C)C3C(=O)C=C4C(CCC(=O)C4(C)C)C3(C)CCC12C (stereo not drawn) | 7%[10 µM]
COc1ccc(-n2c(CC3C(=O)N(C)c4ccc(C)cc43)nc3ccccc3c2=O)cc1 (stereo not drawn) | -18%
C[C@H]1[C@H](C)C[C@@H](C(=O)O)C2CC[C@]3(C)C(=CC[C@@H]4[C@@]5(C)CC[C@H](O)C(C)(C)[C@@H]5CC[C@]43C)[C@@H]21 (stereo partly drawn) | -19%
CC(C)(C)OC(=O)NCc1nnc(-c2cc3ccccc3[nH]2)s1 | 2%

Reformatted tab-delimited: 14 of the compounds above.
smiles	nsP2pro primary
COc1ccc(C2CC(c3ccccc3)=NN2c2ccc(S(N)(=O)=O)cc2)cc1 (stereo not drawn)	17%
Cc1ccc(OCCn2c(CCNC(=O)/C=C/c3ccccc3Br)nc3ccccc32)cc1	i
CC(C(=O)O)C(=O)O	-12%
Cc1ccc2oc(=O)c(-c3nc(-c4cccs4)no3)cc2c1	-9%
CCCC(=O)N1CCN(c2nc3ccc(F)cc3s2)CC1	-31%
CCc1ccc(OCCCn2c(-c3ccc(Cl)cc3)nc3ccccc3c2=O)cc1	-28%
COc1cc2nc(NCC(C)c3ccccc3)n3nc(-c4ccccc4)nc3c2cc1OC (stereo not drawn)	-4%
CCOc1ccc(C(=O)Nc2ccc3oc(-c4ccc(C)cc4C)nc3c2)cc1Br	-24%
CC1(C)C(=O)N2c3ccccc3C(O)(CC(C(=O)O)n3cnc4ccccc4c3=O)C2N1O (stereo not drawn)	?
Fc1cccc(Br)c1NC1=NCCN1	-3%
C[C@H]1C/C=C/[C@H]2[C@@H]3O[C@]3(C)[C@@H](C)[C@H]3[C@H](Cc4ccccc4)NC(=O)[C@]32OC(=O)O/C=C/[C@@](C)(O)C1=O	-9%[10 µM]
CC(=O)Nc1cc(-c2cc(C(=O)NCc3cccnc3)c3c(c2)N(C)CCO3)ccn1	i
O=[S+]1([O-])NC2(CCCN(Cc3ccc(F)cc3)C2)CNc2ccccc21 (stereo not drawn)	i
O=C(Cn1c(=O)n(-c2ccccc2)c(=O)c2c3c(sc21)CCC3)c1ccc(Br)cc1	-24%

The list goes on:
SMILES | nsP2pro primary
COc1ccc(C(=O)NC(c2ccco2)c2cc(Cl)c3cccnc3c2O)cc1 (stereo not drawn) | 3%
CC(C)OC(=O)C(C(=O)OC(C)C)=C1SC=CS1 | -17%&-1%
COc1cccc(C2c3c(ncn(-c4ccc5c(c4)OCO5)c3=N)Oc3ccc4ccccc4c32)c1 (stereo not drawn) | -7%
CC1CCN(Cc2nnnn2CCCC(=O)N2CCN(CCO)CC2)CC1 | i
COCCCNc1ccnc(-c2nnc(C)n2-c2ccccc2)c1 | i
O=C(c1ccco1)N1CCCC1c1nc(C2CCOCC2)no1 (stereo not drawn) | -8%
COc1ccc(OCc2ccc(-c3nc(C#N)c(NCc4ccc(F)cc4)o3)o2)cc1 | -6%
CCOC(=O)c1cnc2ccc(OC)cc2c1NCCc1ccc(OC)c(OC)c1 | -2%
CN(C)CCC(O)(c1ccccc1)c1ccccc1Cl (stereo not drawn) | 1%
CC(C)c1nc(N2CCOCC2)ncc1C(=O)O | -6%
O=c1c(NS(=O)(=O)Cc2ccccc2)ccc2n1C[C@H]1C[C@@H]2CN(S(=O)(=O)c2ccccc2)C1 | ?
O=C(NCc1cccnc1)C1CCC(=O)N1C1CCN(C(=O)Cc2ccccc2F)CC1 (stereo not drawn) | 4%
Cc1cccc(Nc2ccccc2C(=O)O)c1C | 1%
CC(C)(O)c1ccc2c(c1)C(=O)C[C@H]1[C@](C)(C(=O)O)CCC[C@]21C | -2%
CN1CCN(C(=O)Cn2ncc3c4ccccc4n(Cc4ccc(Cl)cc4)c3c2=O)CC1 | 29%
O=C(N[C@@H]1CN(C(=O)c2[nH]nc3c2CCc2ccccc2-3)CC[C@@H]1CO)c1ccccc1 | 4%
C/C=C/C(O)C1OC(=O)CC1Nc1ccc(C(=O)O)cc1 (stereo not drawn) | -4%
CCCn1c(C)cnc1C1CCNC1 (stereo not drawn) | i
CCOC(=O)c1c(NC(C)=O)c2c3c(sc2n1Cc1nc(-c2ccccc2OCC)oc1C)CCCC3 | 5%
COc1ccc(C(=O)NCC(=O)OC(C(=O)Nc2cc(C(F)(F)F)ccc2Cl)c2ccccc2)cc1OC (stereo not drawn) | 4%
CCc1ccc(Nc2c(F)c(F)cc(F)c2F)c(CC(=O)O)c1 | -7%
N#Cc1cc(C2=Nc3ccc(Br)cc3NC(=O)C2)ccn1 | -7%
CC(Cc1ccccc1)NCc1ccccc1Cl (stereo not drawn) | -2%
Cc1nnc2n1CCC(NC(=O)c1ccoc1)CC2 (stereo not drawn) | -4%
NCCC(=O)N1CCC2(CC1)CN([S+](=O)([O-])c1ccccc1)CCO2 | -13%

(cont.)
SMILES | nsP2pro primary
CCn1c(CO)nnc1C1CC(NC(=O)Cn2ncc3ccccc32)C1 (stereo not drawn) | 4%
CCC(C)CNCC(=O)N1CCC2SC=CC2C1COc1cccc(C)c1 (stereo not drawn) | 60%[activator]
O=C(Nc1cccc([S+](=O)([O-])Nc2ccccc2F)c1)c1ccccc1 | 5%
COc1cccc(-c2nn(C)c3sc(C(=O)NCc4cc(OC)ccc4OC)cc23)c1 | 2%
COc1cccc(CC(=O)N[C@@H]2CN(c3ncccn3)C[C@H]2CO)c1 | 3%
CN(C)c1cccc(-c2cnc(Nc3ccc(N4CCOCC4)cc3)c3c2CCO3)c1 | -7%[39.2 µM]
COCC(=O)NC[C@H]1CCN(Cc2cccn2C)C[C@H]1N(C)C | -39%
Cc1cccc(N2CCN(c3nc4ccccc4c4nnc(C)n34)CC2)c1C | -11%
Cc1cc(C)c2c(-n3cccc3)c(C(=O)NCC(C)c3ccccc3)sc2n1 (stereo not drawn) | -26%
CCN(CC)S(=O)(=O)c1ccc2oc(C(=O)N(C)Cc3ccccc3)c(C)c2c1 | -16%
COc1cc(C(=O)Nc2ccc(-n3c(C)nc4ccccc4c3=O)cc2)cc(OC)c1OC | -10%
CCOC(=O)c1ccc2c(c1)N(C(CC)C(=O)Nc1ccccc1OC)C(=O)c1ccccc1S2 (stereo not drawn) | -11%
O=C(c1ccc(-c2ccco2)cc1)N1CCOC(c2ccccc2)C1 (stereo not drawn) | 7.9µM*
Cc1ccc(C)c(Cn2c(CCCNC(=O)C3CCCCC3)nc3ccccc32)c1 | -25%
Cc1c(C(=O)OCCOc2ccccc2)[nH]c2c1C(=O)CC(c1ccccc1Cl)C2 (stereo not drawn) | -14%
CCc1ccc(OCCCSc2nc(-c3ccc(C(C)(C)C)cc3)nc3cc(=O)[nH]n23)cc1 | 66%[activator]
Cn1nccc1C(=O)N1C[C@@H](F)C[C@H]1C(=O)N1CCCCC1 | -3%
O=C(CCS(=O)(=O)c1cccc2nonc12)Nc1ccc(Br)cc1 | -3%
Cc1ccccc1OC1(C(=O)O)CCN(c2ncccc2C(N)=O)CC1 | -15%
CCOC(=O)c1c(NC(=O)COc2ccc(Br)cc2)sc(C(C)=O)c1C | -8%
CC(=O)O[C@@H]1[C@@H](OC(=O)/C=C/c2ccccc2)[C@H](C)O[C@@H](O[C@H]2[C@@H]3C=CO[C@@H](O[C@@H]4O[C@H](CO)[C@@H](O)[C@H](O)[C@H]4O)[C@@H]3[C@@]3(CO)O[C@@H]23)[C@@H]1OC(C)=O | -10%[10 µM]
C#C[C@H]1CN2CC[C@H]1C[C@@H]2CNC(=O)C1CC1 | 3%[39.2 µM]
CC1(C)CCC(C)(C)c2cc(C#Cc3ccc(C(=O)O)cc3)ccc21 | 40%[activator]
COc1cc(OC)cc(N2CCN(C(=S)Nc3cc(C)cc(C)n3)CC2)c1 | i
CN(C)c1cccc(-c2ncc(F)c(N3CCC(C(N)=O)CC3)n2)c1 | ?

(further entries)
SMILES | nsP2pro primary
CCN(CC)C(=O)c1c(-c2ccccc2)c(-c2ccccc2)nn(CC)c1=O | ?
CC(=O)Nc1sc2c(c1-c1nc3ccccc3s1)CCS(=O)(=O)C2 | i
CCc1cccc(NS(=O)(=O)c2c(C)[nH]c(=O)[nH]c2=O)c1 | -9%
C=C(C(=O)O)[C@@H]1CC=C(CCC(C)=O)[C@@H](C)CC1 | 36%
CC(C)(C)c1ccc(S(=O)(=O)c2cnc(SCC(=O)Nc3ccc4c(c3)OCCO4)[nH]c2=O)cc1 | 56%[activator]
CCCn1c(-c2ccc(F)cc2)nc2c(NCCCN(CC)CC)nc(C)nc21 | -5%
Cc1ccc(CN2CCOCCNC(=O)[C@H]3CCCC[C@H]32)o1 | ?
COc1ccc(S(=O)(=O)N2CCC(c3nnc(-c4ccccc4C)o3)CC2)c(OC)c1 | -14%
Oc1cc(CNC(=S)/C=C/c2cc(O)c(O)c(Br)c2)cc(O)c1O | 5.6µM*
CCC(NC(C)C)C(O)c1ccc(O)c(O)c1 (stereo not drawn) | -29%
Cc1ccc(-c2ccc(=O)n(CC(=O)NCCc3ccc(O)cc3)n2)cc1 | 4%
N=C(N)N | ?
Cc1cc(SCC(=O)Nc2ccc(F)cc2F)nc(=O)[nH]1 | 0%
COc1cc(F)c(C(C)C)cc1-c1ccc(C(F)(F)F)cc1CN1C(=O)OC(c2cc(C(F)(F)F)cc(C(F)(F)F)c2)C1C (stereo not drawn) | 29%&-8%
CNc1oc(-c2ccc(F)cc2)nc1C#N | 0%
O=C(Nc1ccccc1)N1CCC(OCc2noc(C3CCCO3)n2)CC1 (stereo not drawn) | i
Cc1cn(CC(=O)N[C@@H]2COCC[C@@H]2OCC2CC2)c(=O)[nH]c1=O | 0%
CN(C)C(=O)N1CCN(C2CCNCC2)C(=O)C1 | 13µM*
Cc1ccc(S(=O)(=O)N2CCN(S(=O)(=O)c3ccc4c(c3)OCCO4)CC2)cc1 | -8%
O=[N+]([O-])c1cc(-c2nc(-c3ccccc3)no2)ccc1N1CCCCC1 | -13%
COCc1ccc2c(c1)c(OC(C)(C)C(=O)NCC1CCOCC1)nn2Cc1ccccc1 | -1%
CC1CCN(Cc2nnnn2CC(=O)N(C)Cc2ccccn2)CC1 | -3%
Cc1cc(C)nc(NC(=S)N2CCN(c3nccs3)CC2)c1 | -9%
Cc1noc(C)c1S(=O)(=O)N1CCC2(C1)C(=O)N(c1ccccc1)c1ccccc12 (stereo not drawn) | 3%
CCc1sc(Nc2cccc(C)c2C)nc1-c1cc2cccc(OC)c2oc1=O | -37%

Next section.
SMILES | nsP2pro primary
CC(Sc1nc2c(cnn2-c2cccc(Cl)c2)c(=O)[nH]1)C(N)=O (stereo not drawn) | 45%
Cc1cc2c(s1)c1c(n2C)C(=O)N(Cc2ccccc2F)C1 | -7%
CCc1noc([C@@H]2CC(F)(F)CN2C(=O)Cc2cccnc2)n1 | 0%
O=C(Nc1cccc(Br)c1)c1cc(S(=O)(=O)N2CCCCC2)c[nH]1 | -28%
O=C(Cc1ccc(Cl)c(Cl)c1)Nc1ccc(S(=O)(=O)Nc2cccc(O)c2)cc1 | ?
CC1(COc2cccnc2)COc2ccc(C(=O)NCc3cccs3)cc2N1 (stereo not drawn) | 4%[39.2 µM]
CCN(CC)S(=O)(=O)c1cccc(C(=O)Nc2ccccc2C(=O)Nc2ccc(Cl)cc2)c1 | -19%
O=C1CC(c2ccccc2)CC2=C1C1(CCCC1)N=C(Nc1nc3ccccc3o1)N2 (stereo not drawn) | -3%
CC(C)c1ccc2c(c1)[C@H](O)CC1[C@@](C)(C(=O)O)CCC[C@]21C (stereo partly drawn) | 4%
COc1ccc(CCO[C@@H]2O[C@H](CO[C@@H]3OC[C@H](O)[C@H](O)[C@H]3O)[C@@H](O)[C@H](O)[C@H]2O)cc1 | 9%[10 µM]
CC(O)CCc1ccc(O[C@@H]2O[C@H](CO)[C@@H](O)[C@H](O)[C@H]2O)cc1 (stereo partly drawn) | 21%
